Screening data deposited in PubChem by National Center for Advancing Translational Sciences (NCATS).
Cruzain inh noDet – cruzain (T. cruzi) inhibition without detergent; hit rate 2.3% among 200,000; Potency, µM, for the others: max response, negative = inhibition, hits mostly inhibitors; purified cruzain, Z-FR-AMC fluorescence, no detergent; P25779;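 also: plate controls were enzyme without inhibitor for no effect and buffer without enzyme for full effect; nearly all actives have a fitted effect of over 40% in size; top concentration of the series not given in the record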
Target sequence (P25779 123-467 limits assumed): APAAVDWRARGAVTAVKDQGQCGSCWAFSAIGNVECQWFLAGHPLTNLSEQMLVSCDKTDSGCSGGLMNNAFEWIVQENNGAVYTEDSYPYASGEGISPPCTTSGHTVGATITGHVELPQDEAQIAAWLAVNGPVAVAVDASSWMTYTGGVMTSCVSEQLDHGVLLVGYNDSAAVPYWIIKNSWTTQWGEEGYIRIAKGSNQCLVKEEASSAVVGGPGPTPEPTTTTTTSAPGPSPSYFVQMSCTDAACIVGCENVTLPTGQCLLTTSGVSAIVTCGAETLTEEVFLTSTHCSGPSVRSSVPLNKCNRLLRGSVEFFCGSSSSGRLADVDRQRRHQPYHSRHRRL
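Detergent-free condition (0.00005% Triton X-100) in acetate buffer pH 5.5 with DTT. 1.5 nM enzyme and compound were pre-mixed 15 min, then 2 uM Z-FR-AMC substrate added; reaction progress from fluorescence change between first and third reads (60 s).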
RE007 growth inh – less growth of the S. pombe RE007 Vpr strain. S. pombe RE007 Vpr strain, BacTiter-Glo ATP luminescence, 24 h; control for the full effect not named in the record. Potency, µM (highest dose often 92.2 µM), for inactives: at the top dose activity change, negative = less growth. hit rate 0.21% among 360,000. AID 651644; active = well fitted falling curve with a large enough effect; inconclusive = small, poorly fitted or top-dose-only effect; inactive = no such curve, though single readings can be large or run the other way;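 also: % is scaled to controls: 0 for no effect and ±100 for the full control effect; nearly all actives have a fitted effect of over 50% in size; the assay follows cell death caused by Vpr and the record does not say whether a fall means rescue or toxicity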
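Fission yeast strain RE007, carrying one chromosomally integrated HIV-1 vpr copy, was seeded at OD 0.01 in PMG+AL medium with 23 nL pinned compound. After 24 h at 30 °C and 99% humidity, viability was read by BacTiter-Glo luminescence.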
Cruzain inh Det – blocks cruzain activity in presence of Triton detergent. purified cruzain, Z-FR-AMC fluorescence, 0.01% Triton. Potency, µM, without a hit: max response, negative = inhibition, actives largely listed as inhibitors. hit rate 0.43% among 200,000. AID 1478;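 also: plate controls were neutral wells for no effect and buffer without enzyme for full effect; nearly all actives have a fitted effect of over 40% in size; top concentration of the series not given in the record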
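Detergent-containing run (0.01% Triton X-100) in acetate buffer pH 5.5 with 5 mM DTT: enzyme at 1.5 nM final, 15 min compound preincubation at room temperature, then 2 uM Z-FR-AMC substrate. Activity taken as 60 s fluorescence increase at 360/450 nm.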
Marburg entry inh – inhibitors of Marburg virus binding or cell entry; Marburg virus pseudotyped entry inhibition, cell reporter; control for the full effect not named in the record; about a third of the inactives were read at about 46 µM; Potency, µM (series often up to 37.8 µM), inactives show at the highest dose activity change, negative = inhibition, most hits filed as inhibitors; hit rate 1.8% among 300,000; active = well fitted inhibition curve with a large enough effect; inconclusive = small, poorly fitted or top-dose-only effect, or effect the other way; inactive = flat fitted curve, though single readings scatter; tested in HEK293 cells; about a fifth of its hits are not listed in these tables; also: % is scaled to controls: 0 for no effect and ±100 for the full control effect; luciferase read-out
NS1 inh – inhibitors of influenza NS1 protein function. S. cerevisiae slowed by influenza A NS1, growth recovery by OD600. Potency, µM (series often up to 46.1 µM), without a hit: top-dose activity, positive = more growth. hit rate 0.4% among 270,000. AID 2326; active means well fitted rising curve with a large enough effect; inconclusive means small, poorly fitted or top-dose-only effect; inactive means no such curve, though single readings can be large or run the other way; also: nearly all actives have a fitted effect of over 50% in size
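OD600 was taken as the measure of yeast growth restored by compound in an NS1-expressing S. cerevisiae strain. Cells had been washed out of glucose medium and diluted 1:100 into galactose -URA medium, pH 6.0.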
SARS PLpro yeast – SARS-CoV PLP inhibition in yeast. S. cerevisiae expressing SARS-CoV PLpro, growth rescue; control for the full effect not named in the record. Potency, µM (series often up to 32.9 µM), for inactives: at the top dose activity, positive = growth rescue. hit rate 0.19% among 330,000; active means well fitted rising curve with a large enough effect; inconclusive means small, poorly fitted or top-dose-only effect; inactive means no such curve, though single readings can be large or run the other way; also: 0% is about no effect; nearly all actives have a fitted effect of over 55% in size; growth read by luminescence after 48 h
Lassa entry inh – blocks Lassa virus binding to or entry into cells; Lassa virus pseudotype entry inhibition, cell reporter; control for the full effect not named in the record; AID 540256; hit rate 1.2% among 300,000; Potency, µM (doses to about 37.9 µM), inactives show at the highest dose activity change, negative = inhibition, actives largely listed as inhibitors; active means well fitted inhibition curve with a large enough effect; inconclusive means small, poorly fitted or top-dose-only effect, or effect the other way; inactive means flat fitted curve, though single readings scatter; tested in HEK293 cells; also: % is scaled to controls: 0 for no effect and ±100 for the full control effect; nearly all actives have a fitted effect of over 50% in size; luciferase read-out
2A StopGo – FMDV 2A StopGo reporter, luciferase signal; human cells with a luciferase reporter of 2A StopGo recoding; control for the full effect not named in the record; hit rate 1.2% among 410,000; Potency, µM (titrated, usually from 57.9 µM), inactives show at the highest dose signal change, negative = less light; active = well fitted falling curve with a large enough effect; inconclusive = small, poorly fitted or top-dose-only effect; inactive = no such curve, though single readings can be large or run the other way; tested in HEK293T cells; also: % is scaled to controls: 0 for no effect and ±100 for the full control effect; nearly all actives have a fitted effect of over 45% in size; luciferase light after 4 h
* = called active by the depositor; ? = inconclusive; . = not tested or not shown; & = joins results of further samples; [ ] = remark or other dose. Unless noted, calls follow the shape of the dose curve; as a rule, active = well fitted curve in the direction sought with a large enough effect; inconclusive = small, poorly fitted or top-dose-only effect, or another doubt; inactive = no such curve, though single readings can be large; an effect the other way counts as inactive or inconclusive. Potency is read from the fitted curve at half-maximal effect. Not a hit list; overall some 4.7% were active at least once.

SMILES	Cruzain inh noDet	RE007 growth inh	Cruzain inh Det	Marburg entry inh	NS1 inh	SARS PLpro yeast	Lassa entry inh	2A StopGo
CS(=O)(=O)c1ccc2nc(NC(=O)c3cc4ccccc4o3)sc2c1	21%	0%	-12%	?	16%	-4%	-11%	-2%
Cc1cc(NC(=O)CSc2nc3c(c(=O)n(C)c(=O)n3C)n2C(C)C)no1	3%	-2%	4.2%	1%	-1%	4%	-24%	-25%
Cc1cc2oc(=O)cc(CN3CCN(S(=O)(=O)/C=C/c4ccccc4)CC3)c2cc1C	?	1%	-3.4%	-18%	?	-23%	5%	?
COc1cccc(CNC(=O)C2CCN(S(=O)(=O)c3cccc4cccnc34)CC2)c1	4%	-8%	1.2%	5%&5%	-36%	2%	5%	-18%
O=C(Cn1c(=O)nc(-c2ccccc2)c2ccccc21)NCCc1ccccc1	1%	.	-1.8%	.	.	.	2%[46.1 µM]	6%
O=C(C1CCC(=O)N(C2CC2)C1)N1CCN(c2ccccc2Cl)CC1 (stereo unspecified)	.	-1%	.	0%[46.1 µM]	-1%	3%	34%[46.1 µM]	24%
COc1ccc(CC(=O)Nc2c(C(=O)Nc3ccccc3F)oc3ccccc23)cc1	-8%	.	-0.5%	24%[46.1 µM]	.	.	7%[46.1 µM]	-9%
CCc1ccccc1NC(=S)NC1CC2CCC(C1)N2Cc1ccc(F)cc1 (stereo unspecified)	.	-2%	.	.	-1%	0%	.	-18%
CC(Oc1ccccc1)C(=O)Nc1cccc(NC(=O)c2ccco2)c1 (stereo unspecified)	.	-1%	.	.	-3%	-3%	.	0%
CCOC(=O)c1ccccc1NC(=O)Cn1cnc2c(cnn2C(C)(C)C)c1=O	9%	6%	-5.3%	-8%	-18%	3%	0%	?
O=C(Nc1cccc(C(F)(F)F)c1)OCc1ccncc1	.	16%	.	?	.	.	-1%	?
COc1cc(/C=C/c2cc(C(=O)O)c3ccccc3n2)cc(OC)c1O	.	-29%	.	2%[46.1 µM]	7%	0%	-1%[46.1 µM]	-3%
CC(=NNC(=S)N1CC2CCC(CC2)C1)c1cnccn1	.	?	.	?	.	.	0.28µM*	-17%
CSc1ccc(S(=O)(=O)NCc2ccccc2C)cc1	.	5%	.	?	-11%	-2%	-5%	27%
CC1CCN(Cc2nc(-c3ccccc3)no2)CC1	-3%	-9%	3.5%	?	-1%	-2%	4%	15%
CC(NC(=O)Nc1cccc([N+](=O)[O-])c1)c1ccc2c(c1)OCO2 (stereo unspecified)	.	11%	.	.	-15%	5%	.	-18%
COc1cccc(NC(=O)c2ccc3c(c2)C(=O)N(CC2CCCO2)C3=O)c1 (stereo unspecified)	.	-15%	.	.	-9%	-3%	.	16%
CCN(CC)S(=O)(=O)c1cccc(N=Nc2sc(N)nc2C)c1	.	2%	.	.	5%	-2%	.	29%
O=[N+]([O-])c1ccccc1S(=O)(=O)N(CC(O)CN1CCCCC1)c1ccccc1 (stereo unspecified)	.	-12%	.	?	-7%	0%	-11%[46.1 µM]	-10%
CCc1nc2nc(C)c(NS(=O)(=O)c3ccc(F)cc3)c(=O)n2[nH]1	.	5%	.	15%[46.1 µM]	29%	0%	23%	35%[activator]
COc1ccc(NC2CCCN(C(=O)C3=NN(C)C(=O)CC3)C2)cc1OC (stereo unspecified)	.	3%	.	.	2%	-1%	.	-7%
O=S(=O)(NCC1CC1)c1cccc(S(=O)(=O)N2CCCC2)c1	2%	11%	4.1%	2%	-4%	2%	5%	15%
CCC(=O)N1CCc2cc(Br)cc(S(=O)(=O)NCCc3ccc(OC)c(OC)c3)c21	3%	.	-2.3%	2%[46.1 µM]	.	.	1%[46.1 µM]	33%[activator]
Cc1ccc(CNC(=O)CCC(=O)N2CC(C)Sc3ccccc32)cc1 (stereo unspecified)	3%	-2%	-2.0%	.	-15%	1%	-3%[46.1 µM]	-18%&-12%
CC1(C)Cc2c(cnn2-c2ccc(F)cc2)C(NC(=O)CCN2CCCCO2)C1 (stereo unspecified)	.	-6%	.	0%	5%	-1%	-19%	-3%
COc1ccc(CNC(=O)[C@@H]2CCCN2C(=O)[C@@H]2Cc3ccccc3CN2C(=O)OC(C)(C)C)cc1	.	12%	.	-8%[46.1 µM]	5%	-1%	10%[46.1 µM]	6%
COCCCNC(=O)Cn1cnc2sc(C)c(S(=O)(=O)N3CCC(C)CC3)c2c1=O	-7%	.	1.0%	6%[46.1 µM]	.	.	7%[46.1 µM]	2%
C/C(CC(=O)Nc1ccc(N(C)C)cc1)=N\NC(=O)c1ccc(F)cc1	.	0%	.	.	-7%	1%	.	10%
CC(C)Oc1ccc(C(=O)Nc2nnc(SCC(=O)N3CCOCC3)s2)cc1	11%	-13%	-4.3%	?	3%	9%	2.8µM*	?
Cc1ccccc1N(C)C(=O)C1CCCN(c2ncnc3c2nc2n3CCCCC2)C1 (stereo unspecified)	.	-3%	.	.	-9%	-5%	.	?
O=C(Nc1cccc(Cl)c1)Nc1ccccc1C(=O)NCc1ccco1	17%	14%	-11%	2%[46.1 µM]	3%	-2%	-18%	-10%
Cc1ccc(OCc2nnc(SCC(=O)Nc3cccc4ccccc34)n2-c2ccccc2)cc1	-26%	-1%	-3.9%	13µM*	?	-23%	?	-24%
O=C(O)c1nn(Cc2ncc(-c3cccc(Cl)c3)o2)c(=O)c2ccccc12	.	-16%	.	0%	-1%	-3%	4%	21%
Cc1cccc(N2CCN(c3nc4ccccc4c4nc(-c5ccccc5)nn34)CC2)c1C	5%	.	1.0%	4%[46.1 µM]	.	.	.	-11%
O=C(C1CC1)N1CCc2cc(S(=O)(=O)NCc3ccccc3)ccc21	.	-2%	.	.	0%	2%	.	38%[activator]
CC(C)c1ccc(NC(=O)c2ccc3c(c2)CCN3S(=O)(=O)c2ccccc2)cc1	?	.	-1.2%	?	.	.	?	?
CCC(C)(C)C1CCc2c(sc(N)c2C(N)=O)C1 (stereo unspecified)	?	7%	-25%	?	12%	5%	?	?
COc1ccc(C(=O)c2cn[nH]c2-c2cc(Cl)ccc2O)cc1	15%	-4%	-5.8%	?	-41%	-5%	26%	-15%
COc1ccccc1Nc1nc(N)nc(-c2cc3ccccc3o2)n1	-1%	-1%	-6.9%	?	-36%	-15%	18%	8%
CN(C)CCCN1c2ccc3ccccc3c2Sc2cccc(Cl)c21	3%	14%	-3.8%	?	-8%	.	?	-18%
COc1ccccc1N(C(=O)c1csnn1)C(C(=O)NC1CCCC1)c1ccccc1 (stereo unspecified)	.	6%	.	?	1%	-1%	-5%[46.1 µM]	25%
CCc1ccc(NC2=CC(=O)CC(c3ccco3)C2)cc1 (stereo unspecified)	10%	0%	-1.2%	-12%	-39%	0%	-10%	40%[activator]
Cc1ccnc(NS(=O)(=O)c2ccc(NS(=O)(=O)Cc3ccccc3)cc2)n1	1%	-20%	0.2%	24%	7%	-7%	-4%	34%[activator]
O=C(CSc1nnnn1C1CCCCC1)Nc1ccc(F)cc1	.	12%	.	12%[46.1 µM]	2%	1%	?	-8%
Cc1ccc(NC(=O)Cc2nn(C)c(=O)c3ccccc23)cc1F	-5%	9%	-0.8%	?	0%	-3%	-8%	?
CCOC(=O)N1CCN(C(=O)/C(=C\c2ccc(SC)cc2)NC(=O)c2ccccc2)CC1	.	-9%	.	-2%	-9%	1%	?	14%
CCCOC(=O)C1=C(C)NC2=C(C(=O)CCC2)C1c1cccc(OC)c1OC (stereo unspecified)	17%	7%	-10%	24%	-10%	-1%	-10%	8%
COc1ccc(NC(=O)COC(=O)Cn2cnc3ccccc32)cc1	.	-6%	.	1%	.	-6%	3%	-2%
Cc1ccc(-c2nnc(Nc3ccccc3)c3ccccc23)cc1S(=O)(=O)NCC1CCCO1 (stereo unspecified)	12%	-12%	-5.7%	?	6%	-1%	?	5%
Cn1c(SCC(=O)c2ccc(F)cc2)ncc(C(=O)Nc2ccccc2)c1=O	.	8%	.	21%	.	.	-15%	-27%
O=C(c1ccco1)N1CCN(C(=O)C23CC4CC(CC(C4)C2)C3)CC1	.	5%	.	?	-35%	-7%	-19%	-24%
CCC(=O)Nc1nnc(S(=O)(=O)N(CC(C)C)c2ccccc2)s1	.	1%	.	-1%	7%	-1%	-14%	-6%
CCOC(=O)NC(=O)c1cn(Nc2ncc(C(F)(F)F)cc2Cl)c(=O)[nH]c1=O	.	1%	.	-7%[46.1 µM]	3%	0%	24%[46.1 µM]	3%
CCOc1cc(S(=O)(=O)N(CC)CC)c(OCC)cc1-n1cnnn1	0%	5%	-3.8%	-9%	-5%	5%	?	6%
Cc1oc(-c2ccccc2Cl)nc1CS(=O)(=O)CC(=O)NCc1ccc(F)cc1	?	.	-12%	-13%[46.1 µM]	.	.	3%[46.1 µM]	-19%
Cc1cccc(N/C=C/C(=C(C#N)C#N)N(C)C)c1	-1%	0%	-4.6%	?	9%	8%	-2%	10%
COc1cc(-c2noc(C)c2/C=C/c2ccc(OC(C)=O)cc2)cc(OC)c1OC	.	14%	.	.	2%	-3%	.	-13%
CCOc1ccc(S(=O)(=O)N2CCC(C(=O)N3CCN(c4ccccc4)CC3)CC2)cc1	.	-4%	.	?	-32%	-5%	?	-17%
COc1cc(NC(=O)Cc2ccc(F)cc2)cc(OC)c1OC	.	14%	.	-24%[46.1 µM]	.	1%	-5%	?
COC(=O)c1ccc(Sc2ccc(F)cc2)c(N)c1	-13%	1%	-12%	9%	-96%	-5%	?	37%[activator]
O=C(OCCCCN1C(=O)c2ccccc2C1=O)c1ccc(S(=O)(=O)N2CCCC2)cc1	7%	26%	-3.3%	?	-17%	-1%	7%	-27%
Cn1nc(-c2ccc(C(=O)NCCO)cc2)c2ccccc2c1=O	.	-5%	.	3%[46.1 µM]	12%	3%	-15%[46.1 µM]	15%
CCOC(=O)c1c(C)[nH]c(C(C)=O)c1C	9%	-20%	2.2%	12%	-9%	0%	-9%	-1%
